# Screening data as filed in PubChem BioAssay.
# DUX4 inh = inhibitors of DUX4-driven ZSCAN4 reporter expression, primary screen, 293T cells, Gaussia and Italica luciferase; 37,000 compounds, 0.8% hits; activity change, negative = inhibition, % (test concentration not listed); 293T-iDUX4 ZSCAN4-Gaussia luciferase reporter, 24 h; hits give low values;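 active means -10% or lower and over 25 points stronger than a control reporter; inconclusive means -10% or lower with a smaller gap; inactive means above -10%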;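 further: 0% = median of neutral control wells and -100% = median of positive control wells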
# DUX4 inh difference = recorded beside DUX4 inh, whose call it bears; Gaussia minus Italica difference, %; measured here: selective DUX4 reporter inhibition;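 worked out from the two reporters; negative = selective loss of the DUX4 reporter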
# DUX4 inh control = recorded beside DUX4 inh, whose call it bears; activity change, negative = inhibition, %; measured here: Italica tet-on control reporter;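 0 = neutral control and -100 = positive control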
# * marks the source's active call; other numbers are inactive results; ? = inconclusive; · = not tested or not shown.
DUX4 inh	DUX4 inh difference	DUX4 inh control	smiles
3.9	1.1	2.8	COc1cccc(-c2cn(CC[C@H]3CC[C@@H](NC(=O)CN(C)C)[C@@H](CO)O3)nn2)c1
3.0	3.1	-0.1	CN1C(=O)c2cc(NC(=O)NCc3ccccc3)ccc2OC[C@H]2O[C@@H](CC(=O)NCC3CCCCC3)CC[C@H]21
2.6	3.7	-1.1	CC(=O)N(C)C[C@@H]1[C@@H](c2ccc(C#Cc3ccccn3)cc2)[C@@H](CO)N1C(C)=O
4.7	0.9	3.8	CO[C@@H](CN(C)C(=O)c1ccc2c(c1)OCO2)[C@@H](C)CN([C@@H](C)CO)S(=O)(=O)c1ccc(F)cc1
-0.9	-5.9	5.0	CCCNC(=O)C[C@H]1CC[C@@H]2[C@H](COc3ccc(NC(=O)NC(C)C)cc3C(=O)N2C)O1
2.4	8.8	-6.5	CCCN(C)C[C@@H]1OCc2cnnn2CCCC(=O)N([C@@H](C)CO)C[C@@H]1C
-3.5	-1.7	-1.8	CCC(=O)N1[C@H](CO)[C@H]2c3ccccc3N(S(=O)(=O)c3ccc(F)cc3)C[C@H]21
-2.9	-1.0	-1.9	COc1ccc(CN2C[C@H](O)COC[C@H]3O[C@H](CC(=O)N(C)C)CC[C@@H]32)cc1
-0.6	-4.8	4.2	C[C@@H]1CN([C@H](C)CO)C(=O)Cc2cc(NC(=O)Cc3cn(C)c4ccccc34)ccc2O[C@H]1CN(C)Cc1ccc(C(F)(F)F)cc1
0.3	-2.9	3.1	CO[C@H](CN(C)C(=O)C1CCOCC1)[C@@H](C)CN([C@H](C)CO)S(=O)(=O)c1ccccc1
8.1	5.5	2.6	CO[C@H]1CN(C)C(=O)c2cc(NS(C)(=O)=O)ccc2OC[C@@H](C)N(C(=O)CC2CC2)C[C@@H]1C
-3.2	-2.1	-1.1	COc1cccc(C#Cc2ccc([C@@H]3[C@@H](C#N)N(C(=O)C4CC4)[C@@H]3CO)cc2)c1
?	8.3	3.8	CN(C)C(=O)c1ccc(-c2ccc(C3[C@@H]4CN(S(=O)(=O)c5ccccc5)C[C@H]3N4)cc2)cc1 (stereo not given in full)
-1.8	-4.2	2.4	C[C@@H]1CN([C@@H](C)CO)C(=O)c2cc(NC(=O)Cc3ccccc3)ccc2O[C@@H]1CN(C)C(=O)NC1CCCCC1
11.7	12.2	-0.4	CC=Cc1ccc2n(c1=O)C[C@@H]1[C@@H](CO)[C@H](C(=O)N[C@@H](C)c3ccccc3)[C@H]2N1Cc1ccncc1 (mixture of isomers)
-0.5	-1.4	0.8	Cc1ccc(S(=O)(=O)N(C)C[C@@H]2Oc3ccc(NC(=O)CCCN(C)C)cc3C(=O)N([C@@H](C)CO)C[C@H]2C)cc1
-0.4	-2.8	2.4	CN1CCN(C(=O)C[C@H]2CC[C@H]3[C@@H](COC[C@H](O)CN3Cc3cccc(-c4ccncc4)c3)O2)CC1
-1.7	1.3	-3.0	Cc1cccc(S(=O)(=O)N2[C@@H]3c4cccc(=O)n4C[C@H]2[C@H](CO)[C@H]3C(=O)N(C)C)c1
-1.2	6.3	-7.5	C[C@H](CO)N1C[C@H](C)[C@@H](CN(C)Cc2cccc(C(F)(F)F)c2)OCc2cn(nn2)CCCC1=O
?	·	·	C[C@H]1CN([C@@H](C)CO)C(=O)c2c(c3ccccc3n2C)-c2ccccc2CO[C@@H]1CN(C)Cc1ccc2c(c1)OCCN2C
5.6	2.1	3.5	CNC(=O)C[C@H]1CC[C@@H]2[C@H](COC[C@H](O)CN2S(=O)(=O)c2ccccc2Cl)O1
2.3	-3.4	5.7	CCC(=O)N1CC2(C1)[C@H](c1ccccc1)[C@H](CO)N2Cc1cc(F)ccc1F
3.3	-3.1	6.4	CO[C@@H]1CN(C)C(=O)c2ccc(NS(C)(=O)=O)cc2OC[C@@H](C)N(Cc2ccccn2)C[C@@H]1C
1.0	-0.4	1.4	O=C(Nc1cccc(F)c1)N1CC(=O)N2[C@H](CO)[C@H](c3ccc(Br)cc3)[C@H]2C1
-0.6	-7.7	7.1	C[C@H](NC(=O)[C@H]1[C@H](CO)[C@H]2Cn3c(cccc3=O)[C@@H]1N2C(=O)C1CC1)c1ccccc1
14.9	-4.2	19.1	CC(C)(O)C#Cc1ccc([C@@H]2[C@H]3CN(S(C)(=O)=O)CCCCN3[C@H]2CO)cc1
8.6	8.5	0.1	O=C(C[C@@H]1CC[C@@H]2[C@H](COC[C@@H](O)CN2Cc2cccc(F)c2)O1)NCCc1ccncc1
9.8	2.9	6.8	CN1c2ccc(-c3cccc(F)c3)cc2[C@@H]2[C@@H](CCN2C(=O)c2ccncc2)[C@@H]1CO
1.3	-1.4	2.7	CC(=O)NC[C@H]1[C@H](c2ccc(-c3ccccc3F)cc2)[C@@H](CO)N1C(=O)C1CC1
-2.3	-1.6	-0.8	O=C(c1cccnc1)N1C[C@@H]2[C@H](c3ccccc31)[C@H](CO)N2C(=O)Nc1cccc(F)c1
7.5	7.5	0.0	OC[C@H]1[C@@H](c2ccccc2)C2(CN(Cc3nccs3)C2)N1Cc1ccncc1
-7.6	4.7	-12.3	O=C(C[C@H]1CC[C@@H]2[C@H](COC[C@H](O)CN2C(=O)Nc2ccc(Cl)c(Cl)c2)O1)NCc1ccccc1
4.2	4.7	-0.4	CC(=O)N1[C@@H]2c3ccc(C4=CCCC4)c(=O)n3C[C@@H]2[C@@H](CO)[C@@H]1C(=O)N1CCCCC1
0.9	1.8	-0.9	COc1ccc(CN(C)C[C@H]2OCc3cnnn3CCCC(=O)N([C@H](C)CO)C[C@@H]2C)cc1
0.6	-1.0	1.6	CCCNC(=O)N1[C@H](CO)[C@H](c2ccccc2)[C@@H]1CNC(=O)C1CC1
2.0	2.9	-0.9	CO[C@@H]1CN(C)C(=O)c2ccc(NS(=O)(=O)c3ccc(C)cc3)cc2OC[C@@H](C)N(C)C[C@H]1C
9.1	5.9	3.2	CCCNC(=O)N1[C@H](CO)[C@@H](c2ccccc2)C12CN(C(=O)c1cccnc1)C2
2.7	4.4	-1.7	O=C(C[C@@H]1C=C[C@H](NC(=O)Nc2cccc(F)c2)[C@H](CO)O1)NCC1CCCCC1
14.6	6.9	7.7	CN(C)C(=O)c1cccc(-c2ccc3c(c2)[C@H]2[C@H](CCN2S(=O)(=O)c2cn(C)cn2)[C@@H](CO)N3)c1
5.3	-6.9	12.2	C[C@H]1CN([C@@H](C)CO)C(=O)CCCn2nncc2CO[C@@H]1CN(C)C(=O)Nc1ccc2c(c1)OCCO2
0.5	2.1	-1.6	CCCNC(=O)[C@@H]1[C@@H](CO)[C@@H]2Cn3c(ccc(C4=CCCC4)c3=O)[C@H]1N2Cc1ccncc1
?	·	·	Cc1cccc(S(=O)(=O)N2CC[C@@H]3[C@H](CO)N(C)c4ccc(-c5ccc(C#N)cc5)cc4[C@@H]32)c1
0.5	1.9	-1.4	CN(C)CC(=O)N[C@H]1CC[C@@H](CCNC(=O)C2CCC2)O[C@H]1CO
10.1	11.1	-1.0	CCCC#Cc1ccc2c(c1)[C@H]1[C@H](CCN1Cc1ccccc1F)[C@@H](CO)N2
-2.0	-1.3	-0.7	CN(C)C(=O)C[C@@H]1C=C[C@@H](NC(=O)Nc2cccc(F)c2)[C@@H](CO)O1
0.0	-5.0	5.0	COC(=O)C[C@@H]1C[C@H]2c3cc(NC(=O)C4CCOCC4)ccc3O[C@H]2[C@@H](CO)O1
-3.1	-1.4	-1.7	CC(C)NC(=O)Nc1cccc2c1O[C@@H](CN(C)C(=O)Nc1ccccc1)[C@@H](C)CN([C@@H](C)CO)C2=O
8.4	6.3	2.1	C[C@@H]1CN([C@H](C)CO)C(=O)c2cc(-c3cccc(C#N)c3)cnc2O[C@H]1CN(C)Cc1ccc(F)cc1
-0.6	-2.3	1.8	O=C([C@@H]1[C@@H](CO)[C@@H]2Cn3c(ccc(-c4cccnc4)c3=O)[C@H]1N2CC1CC1)N1CCCCC1
17.7	1.5	16.3	CCCNC(=O)N1CC2(CCN(C(=O)Cc3cccnc3)CC2)c2c([nH]c3cc(OC)ccc23)[C@H]1CO
14.3	14.4	0.0	COc1ccc2c3c([nH]c2c1)[C@H](CO)N(Cc1ccncc1)CC31CN(C(=O)c2cccnc2)C1
0.7	-6.3	7.0	CCC(=O)N1CCC2(CC1)CN(S(=O)(=O)c1ccccc1)[C@H](CO)c1[nH]c3cc(OC)ccc3c12
-2.1	4.4	-6.5	C/C=C/c1ccc([C@H]2[C@@H](C#N)N(C(=O)CN3CCOCC3)[C@H]2CO)cc1
0.2	4.0	-3.8	COc1ccc2c3c(n(C)c2c1)[C@@H](CO)N(C)CC31CCN(C(=O)Nc2cccc(F)c2)CC1
-0.2	1.5	-1.7	C[C@@H](NC(=O)[C@H]1[C@H](CO)[C@H]2Cn3c(cccc3=O)[C@H]2N1C(=O)C1CC1)c1ccccc1
14.8	8.1	6.7	COc1ccc2c3c(n(C)c2c1)[C@H](CO)N(C(=O)CC1CC1)CC31CCN(C(=O)NC(C)C)CC1
-7.9	-24.0	16.1	O=C(CC1CC1)N1CC2(C1)[C@H](c1ccccc1)[C@H](CO)N2S(=O)(=O)Cc1ccccc1
4.0	-0.8	4.8	CCNC(=O)[C@@H]1[C@@H](CO)[C@@H]2Cn3c(ccc(-c4cccnc4)c3=O)[C@H]1N2Cc1ccccc1
1.0	3.8	-2.7	C[C@@H]1CN([C@@H](C)CO)C(=O)CCCn2nncc2CO[C@@H]1CN(C)C(=O)Nc1cccc(C(F)(F)F)c1
?	·	·	O=C(c1cccc(F)c1)N1CCCCN2[C@H](C1)[C@H](c1ccc(C#CC3(O)CCCC3)cc1)[C@@H]2CO

# (listing goes on)
DUX4 inh	DUX4 inh difference	DUX4 inh control	smiles
-0.7	0.8	-1.5	C[C@H]1CCCCO[C@H](CN(C)C(=O)CCC(F)(F)F)[C@@H](C)CN([C@@H](C)CO)C(=O)c2cc(NC(=O)Cc3ccccc3)ccc2O1
2.3	2.6	-0.3	O=C(c1ccncc1)N1C[C@@H]2[C@H](c3ccccc31)[C@H](CO)N2C(=O)Nc1ccc(F)cc1
-20.8*	-36.5*	15.6*	COc1ccc2c3c([nH]c2c1)[C@@H](CO)N(Cc1ccccc1Cl)CC31CCN(C(=O)C2CC2)CC1
0.0	-1.1	1.1	Cc1ccc(S(=O)(=O)N(C)C[C@@H]2OCc3ccccc3-c3ccccc3C(=O)N([C@@H](C)CO)C[C@@H]2C)cc1
-2.5	1.5	-4.0	C/C=C/c1ccccc1[C@@H]1[C@@H](C#N)N(c2nc(CC)cs2)[C@@H]1CO
2.4	5.0	-2.6	Cc1noc(C)c1NC(=O)N(C)C[C@H]1OCc2cn(nn2)CCCC(=O)N([C@H](C)CO)C[C@@H]1C
0.7	-0.3	0.9	Cc1cc(C(=O)Nc2ccc3c(c2)C(=O)N(C)[C@@H]2CC[C@@H](CC(=O)NCC(F)(F)F)O[C@H]2CO3)no1
?	·	·	COc1cccc(-c2ccc(C3[C@@H]4CN(Cc5ccccn5)C[C@H]3N4)cc2)c1 (stereo not given in full)
?	·	·	CO[C@@H]1CN(C)C(=O)c2cc(NC(=O)C3CCCCC3)ccc2OC[C@H](C)N(Cc2cccnc2)C[C@@H]1C
-4.9	-4.7	-0.2	O=C(C[C@H]1CC[C@H]2[C@@H](COC[C@@H](O)CN2C(=O)Nc2cccc(Cl)c2)O1)N1CCCCC1
-0.7	6.9	-7.7	CC(=O)N1[C@@H]2c3cccc(=O)n3C[C@@H]2[C@@H](CO)[C@@H]1C(=O)NC1CCCCC1
5.4	-8.4	13.9	O=C(C[C@@H]1C[C@@H]2c3cc(NC(=O)Nc4ccccc4F)ccc3O[C@@H]2[C@H](CO)O1)NCC1CC1
-1.1	-1.7	0.6	C[C@@H]1CN([C@H](C)CO)C(=O)CCCn2cc(nn2)CO[C@@H]1CN(C)Cc1ccc(C(F)(F)F)cc1
7.6	2.4	5.2	COc1ccc2c3c([nH]c2c1)[C@@H](CO)N(C(=O)c1ccncc1)CC31CCN(C(=O)CC2CC2)CC1
0.5	2.6	-2.2	COc1ccc2c3c(n(C)c2c1)[C@@H](CO)N(C(=O)c1cnccn1)CC31CN(C(C)=O)C1

# Among those listed so far, six have a CF3 group.
DUX4 inh	DUX4 inh difference	DUX4 inh control	smiles
-0.6	-4.8	4.2	C[C@@H]1CN([C@H](C)CO)C(=O)Cc2cc(NC(=O)Cc3cn(C)c4ccccc34)ccc2O[C@H]1CN(C)Cc1ccc(C(F)(F)F)cc1
-1.2	6.3	-7.5	C[C@H](CO)N1C[C@H](C)[C@@H](CN(C)Cc2cccc(C(F)(F)F)c2)OCc2cn(nn2)CCCC1=O
1.0	3.8	-2.7	C[C@@H]1CN([C@@H](C)CO)C(=O)CCCn2nncc2CO[C@@H]1CN(C)C(=O)Nc1cccc(C(F)(F)F)c1
-0.7	0.8	-1.5	C[C@H]1CCCCO[C@H](CN(C)C(=O)CCC(F)(F)F)[C@@H](C)CN([C@@H](C)CO)C(=O)c2cc(NC(=O)Cc3ccccc3)ccc2O1
0.7	-0.3	0.9	Cc1cc(C(=O)Nc2ccc3c(c2)C(=O)N(C)[C@@H]2CC[C@@H](CC(=O)NCC(F)(F)F)O[C@H]2CO3)no1
-1.1	-1.7	0.6	C[C@@H]1CN([C@H](C)CO)C(=O)CCCn2cc(nn2)CO[C@@H]1CN(C)Cc1ccc(C(F)(F)F)cc1

# 3 entries out of the list, arranged by molar mass, smallest number first:
DUX4 inh	DUX4 inh difference	DUX4 inh control	smiles
0.5	2.6	-2.2	COc1ccc2c3c(n(C)c2c1)[C@@H](CO)N(C(=O)c1cnccn1)CC31CN(C(C)=O)C1
5.4	-8.4	13.9	O=C(C[C@@H]1C[C@@H]2c3cc(NC(=O)Nc4ccccc4F)ccc3O[C@@H]2[C@H](CO)O1)NCC1CC1
-0.7	0.8	-1.5	C[C@H]1CCCCO[C@H](CN(C)C(=O)CCC(F)(F)F)[C@@H](C)CN([C@@H](C)CO)C(=O)c2cc(NC(=O)Cc3ccccc3)ccc2O1

# Some of the compounds tested (hit frequency here may not be typical).
